Source: PubChem (National Center for Advancing Translational Sciences (NCATS))
Vaccinia Venus – vaccinia inhibition (Venus reporter) | Vaccinia virus Venus reporter expression, fluorescence | Potency, µM (titrated, usually from 36.5 µM), without a hit: at the top dose activity change, negative = inhibition, hits mostly inhibitors | hit rate 0.46% among 330,000; active means well fitted inhibition curve with a large enough effect; inconclusive means small, poorly fitted or top-dose-only effect; inactive means no such curve, though single readings can be large or run the other way; tested in A549 cells; further: nearly all actives have a fitted effect of over 30% in size; inactives centre near -10
Vaccinia mCherry – vaccinia inhibition (mCherry reporter) | hit rate 0.63% among 310,000 | Vaccinia virus mCherry reporter infection, fluorescence; about a quarter of the inactives have no number | Potency, µM (series often up to 36.5 µM), for the others: at the highest dose activity change, negative = inhibition, usual class: inhibitors; active = well fitted inhibition curve with a large enough effect; inconclusive = small, poorly fitted or top-dose-only effect; inactive = no such curve, though single readings can be large or run the other way; tested in A549 cells; further: nearly all actives have a fitted effect of over 35% in size; inactives centre near -10
The depositor's hits bear a star; i = inactive; ? = inconclusive; . = no result given; & = joins results of further samples; [ ] = remark or other dose. On the % scale 0 is the no-effect control and ±100 the full control effect; potency means the concentration at half of the fitted maximal effect. Rows were taken by chance; overall some 0.87% were active at least once.

smiles,Vaccinia mCherry,Vaccinia Venus
O=[N+]([O-])c1ccc(C(c2sc3nc(-c4ccco4)nn3c2O)N2CCC3(CC2)OCCO3)cc1 (configuration not stated),6%,10%
CCCCn1c(SCC(=O)N2CC(=O)Nc3ccccc32)nnc1-c1ccoc1C,-11%,-8%
CCN(C[C@H]1N[C@@](C)(C(=O)OC)[C@H]2C(=O)N(C)C(=O)[C@@H]12)S(=O)(=O)c1ccc(F)cc1,-13%,-10%
COc1cccc(Oc2cn[nH]c2-c2ccc(O)cc2O)c1,?,-17%
CCOc1ccccc1CNC(=O)c1cn(-c2ccc(OC)cc2)c(=O)c2ccccc12,-16%,-5%
CC1CCC(NC(=O)CCCn2sc3ccccc3c2=O)CC1 (configuration not stated),3%[7.34 µM],3%[7.34 µM]
COc1ccc(CN2CC(=O)N3[C@H]4c5cc(C)ccc5OC[C@@H]4[C@H](c4ccccc4)[C@]3(C)C2=O)cc1,-18%,-19%
Cc1ccc(-c2nn(-c3ccccc3)cc2C(=O)NN2CCN(C)CC2)cc1,-7%,-16%
CN1CCN(c2ccc(S(=O)(=O)N3CCCCC3)cn2)CC1,.,3%
Cc1coc2c(C)c3oc(=O)c(CCC(=O)N[C@@H](C)C(=O)N[C@@H](Cc4ccccc4)C(=O)O)c(C)c3cc12,0%,2%
COc1ccc(C(C)(O)c2nc(-c3ccccc3)cs2)cc1 (configuration not stated),-2%,-28%
CC(NC(=O)c1ccc2c(c1)CCN2S(=O)(=O)c1ccccc1)c1ccccc1 (configuration not stated),i,-15%
O=C(COc1ccccc1)Nc1nn[nH]n1,-7%,-8%
O=c1[nH]c(C2CCN(S(=O)(=O)c3cccc(C(F)(F)F)c3)CC2)nc2c1nnn2Cc1cccc(F)c1,?,?
O=S(=O)(c1ccccc1)N1CCC(c2ccncc2)CC1,i,-1%
Cc1ccccc1OCC(=O)NCC(C)NC(=O)COc1ccccc1C (configuration not stated),25%,-2%
CC(C)NC(=O)NC(=O)COC(=O)c1ccccc1Oc1ccccc1,i,0%
COc1cccc(C(CC(=O)NCCN2CCOCC2)NS(=O)(=O)c2ccc(C)cc2)c1OC (configuration not stated),-18%,15%
COc1cccc(NC(=O)C2=C(C)C(=O)OC23CCN(C(C)=O)CC3)c1,-4%,0%
COc1ccc(/C(O)=C2/C(=O)C(=O)N(CCN(C)C)C2c2cccnc2)cc1OC (configuration not stated),i,4%
CC(=O)OCC1=C(C(=O)O)N2C(=O)[C@@H](NC(=O)Cc3cccs3)[C@H]2SC1,2%,-2%
O=C(CCc1nc2ccccc2c(=O)[nH]1)N1CCN(S(=O)(=O)c2cccc([N+](=O)[O-])c2)CC1,-18%,-5%
COc1ccc(-n2c(Cn3nnc4ccccc43)n[nH]c2=S)cc1,-23%,-5%
COc1ccc2c(-c3ccc(SC)cc3)c(-c3ccc(S(C)(=O)=O)cc3)sc2c1,-13%,0%
CC(=O)c1nnn(-c2ccc(Cl)cc2C#N)c1C,-2%[7.34 µM],1%[7.34 µM]
O=C(C1CC(c2ccc(F)cc2)=NO1)N1CCCc2ccccc21 (configuration not stated),-18%,-20%
Cc1cc(NC(=O)CSc2nnc(-c3ccccc3F)n2N)no1,-1%,1%
O=C(CSCSCC(=O)NCC1CCCO1)NCC1CCCO1 (configuration not stated),-3%,-9%
COc1ccc(CCNC(=O)CNC(=O)c2nn(-c3ccc(OC)c(OC)c3)c(=O)c3ccccc23)cc1OC,18%,-1%
CC1CCCCC1NC(=O)COC(=O)COc1ccc(Cl)cc1 (configuration not stated),-15%,-5%

Next part; it opens with the 2 that closed the last part.
smiles,Vaccinia mCherry,Vaccinia Venus
COc1ccc(CCNC(=O)CNC(=O)c2nn(-c3ccc(OC)c(OC)c3)c(=O)c3ccccc23)cc1OC,18%,-1%
CC1CCCCC1NC(=O)COC(=O)COc1ccc(Cl)cc1 (configuration not stated),-15%,-5%
COCCn1c(-c2ccsc2)nc2c1c(=O)[nH]c(=O)n2CC(C)C,i[1.46 µM],-11%
O=C(NC1CCN(Cc2ccccc2)CC1)c1ccc(Cn2c(=S)[nH]c3ccc(N4CCOCC4)cc3c2=O)cc1,-1%,-10%
COCCN(CC(=O)NC1CCCCC1)C(=O)c1csnn1,-24%,-6%
N#Cc1ccc(/C=C2/C=Cc3ccccc32)cc1,i,-14%
COc1ccc(OCC(=O)OCc2cc(=O)n3nc(C4CC4)sc3n2)cc1,-7%,-3%
COc1ccc(CN2C(=O)C(CC(=O)NCC3CCCCC3)CC(C(=O)N(C(C)C)C(C)C)=C2C)cc1 (configuration not stated),-23%,?
COc1ccc(NC(=O)COc2cccc3c2OC(C)(C)C3)c(OC)c1,i,-6%
O=C(Nc1ccccc1N1CCCCC1)c1ccc(F)cc1,i,-13%
CCOC(=O)C1ON2CCCCC2C1(O)C(F)(F)F (configuration not stated),i,-10%
O=c1oc2cc(O)ccc2s1,-15%&-18%,-5%&-11%
COc1ccccc1NC(=O)COC(=O)Cc1c[nH]c2ccccc12,i,3%
O=[N+]([O-])c1ccccc1S(=O)(=O)N1CCCC(C(F)(F)F)C1 (configuration not stated),i,-11%
Cc1ccc2nc(N3CCN(c4cccc(Cl)c4)CC3)c3nnnn3c2c1,1%,4%
Cc1cccc(NC(=O)c2cc(S(=O)(=O)c3ccccc3)ccc2Cl)c1,.,?
O=C(CCNC(=O)c1ccccc1Cl)NN=Cc1ccco1,-9%,-2%
O[C@@H]1[C@@H](O)C=C2CCN3Cc4cc5c(cc4[C@H]1C23)OCO5 (some centres not stated),?,4µM*
COc1cc(-c2nc3cnccn3c2Nc2c(C)cccc2C)ccc1O,-23%,-24%
c1cc2c(cc1N1CCCCC1)CNCc1cnnn1-2,i,4%
CCc1nn(CCCC(=O)NCc2ccccc2Br)c(=O)c2cc3occc3n12,-13%,-14%
c1ccc(Cn2nnnc2C(c2cccs2)N2CCCCCC2)cc1 (configuration not stated),i,-6%
Cc1onc(-c2ccccc2)c1C(=O)NCc1ccco1,.,-5%
COCCn1c(SCC#N)nnc1-c1ccc([N+](=O)[O-])cc1,i,0%
COc1ccc(CCCC(=O)N/N=C\c2cccs2)cc1,i,-6%
CC(=O)c1cccc(S(=O)(=O)NCC2CCCCC2)c1,-27%,-18%
Cc1cccc(OCC(=O)Nc2ccc(NC(=O)c3ccccc3)cc2)c1,-14%,-7%
Cc1oc(C(C)(C)C)cc1C(=O)Nc1ccc(N2CCOCC2)cc1,-4%,-21%
COc1ccc(CC(=O)NNC(=O)c2cc(C)[nH]n2)cc1,-11%,-13%
CCOC(=O)C1CCCN(c2c(NCCCN3CCCC(C)C3)c(=O)c2=O)C1 (configuration not stated),-11%,-11%
Cc1cc(C)n2c(Nc3ccc4c(c3)OCCO4)c(-c3ccc(F)cc3)nc2n1,23%,0%
c1ccc2c(Nc3nc4c(s3)CCCC4)cccc2c1,-15%,-2%

Quoted at random: 7 compounds from above, in no set order.
smiles,Vaccinia mCherry,Vaccinia Venus
Cc1cc(C)n2c(Nc3ccc4c(c3)OCCO4)c(-c3ccc(F)cc3)nc2n1,23%,0%
Cc1ccc2nc(N3CCN(c4cccc(Cl)c4)CC3)c3nnnn3c2c1,1%,4%
COCCN(CC(=O)NC1CCCCC1)C(=O)c1csnn1,-24%,-6%
COc1ccc(CN2C(=O)C(CC(=O)NCC3CCCCC3)CC(C(=O)N(C(C)C)C(C)C)=C2C)cc1 (configuration not stated),-23%,?
c1cc2c(cc1N1CCCCC1)CNCc1cnnn1-2,i,4%
COc1ccc(CCCC(=O)N/N=C\c2cccs2)cc1,i,-6%
COc1ccccc1NC(=O)COC(=O)Cc1c[nH]c2ccccc12,i,3%

The list continues.
smiles,Vaccinia mCherry,Vaccinia Venus
COc1ccc(C(CNC(=O)CSc2ccccc2C)N(C)C)cc1 (configuration not stated),-12%,-5%
O=C(Cc1ccccc1)Nc1sc2c(c1C(=O)Nc1ccc(Br)cc1)CCCC2,i,-19%
CC(C)C1=C2CCCCC2NC(=O)N1 (configuration not stated),i,-15%
CN1CCN(NC(=S)Nc2ccccc2)CC1,-18%,-9%
COc1ccccc1P(=O)(Cc1ccccc1)c1ccccc1 (configuration not stated),i,-5%
CCOc1ccc(-c2nc(CCl)cs2)cc1,i[7.34 µM],0%[7.34 µM]
Cc1ccc(C(=O)Nc2cnn(-c3ccc(C(=O)NCc4nc(-c5ccccc5)n[nH]4)cc3)c2)c(C)c1,-21%,-25%
Cc1ccc(NC(=S)N(CCN2CCCCC2)Cc2ccco2)cc1C,-18%,-23%
Fc1cccc(-c2cc3nc4c(c(N5CCOCC5)n3n2)CCCC4)c1,i,-6%
Cc1cccc(NC(=O)Cn2c(=O)n(CC3CCCO3)c(=O)c3ccccc32)c1 (configuration not stated),-5%,-16%
CC(=O)c1ccc(Oc2cc(C(F)(F)F)cnc2C(N)=O)cc1,-8%,-13%
Cc1ccc(N2CC(NS(=O)(=O)c3cccnc3)CC2=O)cc1C (configuration not stated),2%,-5%
COc1ccc2c(c1)CC[C@@H]1[C@@H]2CC[C@]2(C)C(=O)CC[C@@H]12,-8%,-7%
Cc1ccc2nc(N3CCC(C(=O)NC4CCCCC4)CC3)sc2c1,-2%[7.34 µM],10%[7.34 µM]
CCOc1ccccc1NC(=O)CN1CCN(S(=O)(=O)c2ccc(Br)cc2)CC1,-23%,-27%
CCCCCNC(=O)C(c1ccc(OC)cc1)n1c(=O)c(-c2ccco2)nc2ccccc21 (configuration not stated),-20%,-25%
CCn1c(C)cc(C(=O)CSc2nnc(C3CC3)n2C2CC2)c1C,-4%,-8%
COc1ccc(C)cc1N(CC(=O)Nc1ccc(S(=O)(=O)N2CCOCC2)cc1)S(C)(=O)=O,-6%,4%
COc1cc(/C=N/NC(=O)CN2CCOCC2)ccc1OCc1ccccc1,-16%,-11%
Cc1cc(C)cc(NC(=O)C2CCN(S(=O)(=O)c3cn(C)cn3)CC2)c1,-12%,-6%
COc1ccc(NC(=O)CSc2nnnn2C2CCCC2)cc1S(=O)(=O)N1CCOCC1,-25%,-9%
Cc1ccc(S(=O)(=O)N2CCOCC2)cc1NC(=O)COC(=O)CNC(=O)c1ccccc1,i,-8%
COc1ccc(C2C(=O)N(C3CCC(C)CC3)CC(=O)N2Cc2ccccc2Cl)cc1OC (configuration not stated),-1%,-3%
CCOC(=O)N1CCN(C(=O)COc2cccc3c2CCN(Cc2ccc(F)cc2)C3=O)CC1,?,-24%
Cn1c(N)c(C(=O)COC(=O)c2cccnc2Cl)c(=O)n(C)c1=O,1%,-1%
CCOCCC(=O)Nc1ccc2c(c1)c(=O)n(C)n2CC=C(C)C,?,-25%
CC1CC(=O)C(C2c3ccccc3CCN2C(=O)CCl)C(=O)C1 (configuration not stated),-20%,-8%
Cc1c(S(=O)(=O)Nc2ccc3c(c2)OCCO3)c(=O)n(C)c(=O)n1C,i,0%
O=S1(=O)c2ccccc2N(Cc2ccccc2)c2ccccc21,6%,4%
O=C(CCc1nnc(-c2ccccc2)o1)NCc1cc(F)ccc1F,-9%,-9%

Arranged by count of non-hydrogen atoms (rising): some entries from above
smiles,Vaccinia mCherry,Vaccinia Venus
CCOCCC(=O)Nc1ccc2c(c1)c(=O)n(C)n2CC=C(C)C,?,-25%
CCOC(=O)N1CCN(C(=O)COc2cccc3c2CCN(Cc2ccc(F)cc2)C3=O)CC1,?,-24%
Cc1ccc(C(=O)Nc2cnn(-c3ccc(C(=O)NCc4nc(-c5ccccc5)n[nH]4)cc3)c2)c(C)c1,-21%,-25%

(list continues)
smiles,Vaccinia mCherry,Vaccinia Venus
CC(=O)Nc1ccc(S(=O)(=O)Nc2nc3n(n2)C(c2ccccc2)CC(=O)N3)cc1 (configuration not stated),.,10%
Cc1ccc(NC(=O)c2cc3c(s2)CCCC3)cc1S(=O)(=O)Nc1ccccc1Cl,?,?
Cc1ccc2oc(C(=O)N(Cc3ccncc3)CC3CCCO3)c(C)c2c1 (configuration not stated),-4%,-14%
CCOc1ccc(C(=O)Nc2ccc(S(=O)(=O)Nc3nccc(C)n3)cc2)cc1OCC,i,-9%
CCNC(=O)C1(C)CCCN(C(=O)c2c(C)noc2C)C1 (configuration not stated),7%,10%
COc1cc(OC)nc(Oc2ccccc2C(=O)Oc2ccc(C)cc2)n1,-7%,-12%
c1ccc(CCc2nnc3n2CCN(Cc2ccc4ccccc4n2)CC3)cc1,-12%,-9%
COc1cccc(C2Nc3ccccc3-c3nnc(SCc4ccccc4)nc3O2)c1OC (configuration not stated),-3%,-1%
Cc1cc(C)cc(NC(=O)N2CCCC2C(=O)NCc2ccco2)c1 (configuration not stated),-12%,-6%
CCn1c2ccccc2c2cc(NC(=O)COC(=O)c3cc(OC)c(OC)cc3OC)ccc21,-20%,?
CSc1ccc(CCNc2ncnc3onc(-c4ccc(Cl)cc4)c23)cc1,-13%[7.34 µM],-10%[7.34 µM]
CN1C(=O)N(C)C2(c3ccccc3)NC(=O)NC12c1ccccc1 (configuration not stated),.,0%
Cc1ccc(/C=N/NC(=O)CNC(=O)c2ccc(S(=O)(=O)N(C)C)cc2)cc1,i,4%
